AID504770 = E. coli YBA685 growth inhibition, screen for V. cholerae RctB inhibitors; actives 0.27% (n = 130,000); z-score (concentration not given with the values); E. coli YBA685 rctB-dependent plasmid, OD600 growth, 3 h; stronger effect = lower value; AID 504770;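 active = z-score under -2 on both plates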;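 note: wells of about 30 µL received 100 nL stock; score is relative to mean and SD of the test wells; the first replicate is given; strong numbers were not always called active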
CapD inh = inhibitors of Bacillus anthracis CapD enzyme | purified CapD enzyme, fluorescence intensity read-out; stronger effect = lower value; some hits fall short of the stated cut | actives 0.23% (n = 140,000) | z-score (test concentration not listed) | AID 492967;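 active = z-score under -4 in either of two replicates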;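 note: stock transfer was 100 nL into about 40 µL; score is relative to mean and spread of the plate; one replicate is shown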
The depositor's hits bear a star; x = not tested or not shown; & = joins results of further samples. Only part of the results is shown (hit frequency here may not be typical).

SMILES	AID504770	CapD inh
COC(=O)c1ccc(C)cc1	-0.05	x
Cc1cc(C)n(-c2nc(-c3cccnc3)nc3ccccc23)n1	-0.5	0.14
O=C(CSc1cc(Cl)nc(Cl)c1)NNc1ccccc1	x	-0.02
COc1ccc(-c2cc(-c3ccccc3)nc(SCC(C)=O)c2C#N)cc1	x	7.3
NS(=O)(=O)c1ccc(CNC(=O)c2ccco2)cc1	0.7	0.23
CCC(C)C(C(=O)Nc1ccc(F)cc1)N1Cc2ccccc2C1=O (centres undefined)	0.9	0.97
Cc1ccc(C(=O)Nc2ccccc2C(=O)NCc2ccco2)cc1	0.65	x
COc1ccccc1N1CCN(C2Sc3ccccc3NC2=O)CC1 (centres undefined)	1.9	x
O=C(COC(=O)C1CCC(=O)N1)Nc1nc(-c2ccccc2)cs1 (centres undefined)	-0.3	x
COC(=O)C1=C(N)N(c2cccc(C(F)(F)F)c2)C2=C(C(=O)CCC2)C1c1ccccc1 (centres undefined)	-0.7	0.38
COc1ccc(OC)c(C2CC(c3ccc(OC)c(OC)c3)=NN2C(=O)c2ccc(Br)o2)c1 (centres undefined)	x	0.6
COc1cc(CN2CCN(CCOC(=O)N3CCN(c4ncnc5sccc45)CC3)CC2)cc2c1OCO2	x	0.55

Single entries from the list.
AID504770, CCC(C)C(C(=O)Nc1ccc(F)cc1)N1Cc2ccccc2C1=O (centres undefined) stands at 0.9
CapD inh, COc1ccc(-c2cc(-c3ccccc3)nc(SCC(C)=O)c2C#N)cc1 stands at 7.3
CapD inh, O=C(CSc1cc(Cl)nc(Cl)c1)NNc1ccccc1 stands at -0.02
AID504770, COC(=O)c1ccc(C)cc1 stands at -0.05

(next part)
SMILES	AID504770	CapD inh
CC(N)c1nc(-c2ccccc2Cl)no1 (centres undefined)	-0.95	x
Cc1ccc(C(=O)c2coc3ccc(O)c(CN4CCN(C)CC4)c23)cc1	-1.1	-0.045
COc1ccc(-c2csc(=Nc3ccccc3)n2CCCN(C)C)cc1	0.1	17
O=S(=O)(c1ccccc1)n1ccc2cccnc21	-0.15	-0.35
CCn1c(C(C)O)nc2ccccc21 (centres undefined)	1.6	-0.39
CCCCNC(=O)C1CCC(=O)N(c2ccc(OC)cc2)C1c1ccc(OC)cc1 (centres undefined)	-0.85	-1.5
CCc1cc2c(=O)c(-c3nc4ccccc4[nH]3)c(C)oc2cc1OC(C)=O	0.55	-0.15
Cc1[nH]c2ccccc2c1SCc1nnc(SCC(=O)Nc2ccccc2)n1C	-1	-0.29
CC(C)(C)CC(=O)NCc1ccc(F)cc1	-0.45	-0.08
N#CC(C(=O)c1cc(=O)c2cc(Cl)ccc2o1)c1ccccn1 (centres undefined)	0.25	x
CCOc1cc(C=C2C(=O)N(C)C(=O)N(C)C2=O)ccc1OCCOc1ccc([N+](=O)[O-])cc1	x	-0.41
CS(=O)(=O)c1cc(C#N)c(N2CCN(C(=O)CCC(=O)NCCc3ccccc3)CC2)nc1-c1ccc(Cl)cc1	x	0.05

Reprinted from the part before: 2 compounds; new compounds follow.
SMILES	AID504770	CapD inh
CCOc1cc(C=C2C(=O)N(C)C(=O)N(C)C2=O)ccc1OCCOc1ccc([N+](=O)[O-])cc1	x	-0.41
CS(=O)(=O)c1cc(C#N)c(N2CCN(C(=O)CCC(=O)NCCc3ccccc3)CC2)nc1-c1ccc(Cl)cc1	x	0.05
CCc1nc(SC/C=C/c2ccccc2)c(C#N)cc1C	1.1	0.26
Cn1c(Cc2nc(-c3cnccn3)no2)nnc1SCC(=O)Nc1ccc(Cl)cc1	-0.75	0.05
COc1ccc(C2(C(=O)NCCc3ccccc3)CCCC2)cc1OC	2.4	3.5
O=c1[nH]c2nonc2nc1Nc1ccccc1	2.6	-3.5
COc1ccc2c(Cl)c(-c3nnc(SCC(N)=O)n3C)sc2c1	0.05	0.36
CCC(Sc1nncn2c1cc1oc(C)cc12)C(=O)NCc1ccc(C)cc1 (centres undefined)	-0.4	0.65
CCOc1ncccc1C(=O)NCc1ccc(OC)cc1	0.45	0.23
O=c1c2ccccc2nc2c3ccccc3c(NCc3ccco3)nn12	0.1	x
COCCOC(=O)C1=C(N)OC2=C(C(=O)CC(C)(C)C2)C1c1cccnc1 (centres undefined)	x	-0.32
Cc1cc(=O)oc2cc(OCc3ccc4c(c3)OCO4)ccc12	-0.05	2.3
COc1ccc(OCC(O)CNC(=O)C2CCN(c3nccc(C(F)(F)F)n3)CC2)cc1 (centres undefined)	-0.4	3.1
O=C(O)/C=C/C(=O)NCc1cccs1	-1	-0.08
Cn1c(=O)c(C(CC(=O)c2cc3ccccc3oc2=O)Nc2ccccc2)c(O)c2ccccc21 (centres undefined)	-1.9	1.6
Nc1ccc2c(c1)ncn2CCO	0.15	x
NC(=O)C1=CNCCC1C(F)(F)F (centres undefined)	x	-0.7
CNC(=O)CCC(=O)N1Cc2ccccc2Oc2ncccc21	0.2	0.43
COc1ccc(CNC(=O)c2cc(-c3ccccc3)nc3ccccc23)cc1	x	1.3&0.25
COc1ccccc1CCC(=O)NCc1ccccc1	-0.05	x
CN(CC(=O)NC(=O)Nc1ccc2c(c1)OCCO2)Cc1ccc2c(c1)OCCO2	0	x
Cc1noc(C)c1S(=O)(=O)NN	x	-0.97
O=C(C[n+]1ccc(/C=N/O)cc1)NC1CCCCC1	1	0.36
O=C(CSc1nnc(Cc2cccs2)n1C1CC1)Nc1ccc2c(c1)OCO2	-2.8	x
CC1C(=O)N(c2ccccc2)C(c2ccc(Br)cc2)S1(=O)=O (centres undefined)	x	0.065
COc1cccc(C2CC(c3cccs3)=NN2C(=O)CSc2cn(C)c3ccccc23)c1OC (centres undefined)	x	0.78
O=S(=O)(c1cc(Cl)sc1Cl)N1CCCN(CCc2ccccc2)CC1	-0.3	0.18
NC(=O)Cn1c(=O)cnc2ccccc21	-0.1	x
COc1ccccc1NC(=S)NCc1ccco1	x	0.24
O=C(NCc1ccco1)C(Sc1ccccc1)c1ccccc1 (centres undefined)	0.65	x
O=C1S/C(=C/c2ccccc2)C(=O)N1CCOc1ccccc1	0.85	0.18
COc1ccc(C(=O)n2ccc(-c3ccc(Oc4ncccn4)cc3)n2)cc1	x	0.36
CCOC(=O)C1=CN(Cc2ccc(OC)cc2)C=C(C(=O)OCC)C1c1cccc(Br)c1	x	58
Cc1cc(C)n2ncc(C(=O)NCCC(C)C)c2n1	-0.65	35
CCOC(=O)c1sc(=S)n2c1[nH]c(=O)c1ccccc12	x	0.23
COc1ccc(C2=NN(C(=O)CCCC(=O)O)C(c3ccc(C)cc3)C2)cc1OC (centres undefined)	x	56
COc1cc(OC)c(C2C3=C(CC(C)(C)CC3=O)Nc3nc4ccccc4n32)cc1OC (centres undefined)	0.45	-0.36
CCOC(=O)c1cnc2c(c(C)nn2C)c1Sc1ccccn1	1.1	-0.67
Cc1ccc(C2=NN(C(=O)CCC(=O)O)C(c3ccc(C)cc3)C2)cc1 (centres undefined)	x	-0.33
Cc1noc(C)c1CSc1nnc(Nc2ccccc2)s1	1.5	x
O=C(NO)C1CC2C=CC1C2 (centres undefined)	0.2	0.11
CCCCCn1c(=O)c2ccccc2n2c(Cn3nnc4ccccc4c3=O)nnc12	0.2	x
COc1ccc(OC(=O)c2cncc(C#Cc3ccccc3)c2)cc1	-0.7	-0.29
Cc1ccc2nc(SCC(=O)c3cc4c5c(c3)CC(=O)N5CCC4)[nH]c2c1	0.25	x
Cn1c(=O)c2c(O)cc(=O)oc2c2ccccc21	x	0.21
O=S(=O)(c1ccc(Br)cc1)n1c(SCc2cccnc2)nc2ccccc21	x	0.3
Cn1c(CN2CCOCC2)c(C#N)c2ccccc21	-1	-0.015
Cc1cc(S(=O)(=O)Nc2nc(CN3CCOCC3)nc3sc4c(c23)CCC4)ccc1F	-0.1	x
C=CCNC(=O)c1ccc2c(c1)N(Cc1ccccc1)C(=O)CS2	-0.1	0.21
COc1ccc(/C=C2/Oc3ccccc3N(CC(=O)O)C2=O)cc1	-0.65	-1.2
Cc1ccc(S(=O)(=O)N2CC=C(c3ccc(F)cc3)CC2)cc1	-0.15	x
CC1(C)Cc2c(C#N)c(NCC3CCCO3)nc(-c3ccccc3)c2CO1 (centres undefined)	-0.7	-0.11
O=C1OC(c2ccccc2)=N/C1=C/c1cccc(F)c1	0.3	0.14
COc1ccc(C2C(C(=O)Nc3ccccc3)=C(C)Nc3nnnn32)cc1OC (centres undefined)	x	-0.36
COc1ccc(C2=NN(C(=O)CCC(=O)O)C(c3cn(-c4ccccc4)nc3-c3ccc(C)cc3)C2)cc1 (centres undefined)	x	13
O=C(CSC1=NCCS1)N1CCc2ccccc21	-1.1	-0.49
COC(=O)C1(O)/C(=C(\O)c2ccc([N+](=O)[O-])cc2)C(=O)C(=O)N1c1ccccc1 (centres undefined)	x	17
COc1ccc(OCc2nc3ccccc3n2CC(C)C)cc1	-0.5	0.43
CCC(C)c1ccc(OCCOc2c(Br)cc(C=C3C(=O)NC(=O)NC3=O)cc2OC)cc1 (centres undefined)	x	-0.27
CCOC(=O)/C=C1\SCC(=O)N1CCOC(=O)c1cc2c(C)nn(-c3ccccc3)c2s1	0.5	x
CCOC(=O)c1cc2occc2n1Cc1c(F)cccc1Cl	0.5	x
CSc1sc(C#N)c2c1/C(=N/OC(C)=O)CCC2	0.35	-0.57

Additional compounds
SMILES	AID504770	CapD inh
O=[N+]([O-])c1cccc(S(=O)(=O)n2c(SCc3ccc(Cl)cc3)nc3ccccc32)c1	x	0.34
O=C(/C=C/c1cccc(Cl)c1Cl)Nc1cc2ccccc2oc1=O	-1	-0.43
CC1(C)CC2(CC(C)(C(=O)CSc3nc4ccccc4s3)OC2=O)C(=O)O1 (centres undefined)	-0.75	3
O=C(c1cc2nc(-c3ccccc3)cc(-c3ccccc3)n2n1)N1CCC2(CC1)OCCO2	-0.15	6.5
Nc1nc(-c2cc(Cl)sc2Cl)cs1	0.35	-0.92
Cc1ccc(CNC(=O)c2ccc(S(=O)(=O)N3CCCC3)cc2)cc1	0.1	x
CCOC(=O)C1=C(C)N=c2s/c(=C\c3ccc(-c4cccc(C(=O)O)c4)o3)c(=O)n2C1c1ccc2c(c1)OCO2 (centres undefined)	x	-0.21
O=C(COc1ccccc1Br)NC1CCCC1	-0.35	x
CSc1ccc(-c2ncnn2-c2ccc(Cl)cc2)cc1	1.4	-0.72
N#CC1=C2C=CC=CN2CC1=O	-0.55	x
CSc1ccc(C2CC(c3cccs3)Nc3ncnn32)cc1 (centres undefined)	x	-1.5
COc1ccc(CN2CCN(S(=O)(=O)c3cc(C)ccc3OC)CC2)cc1Br	x	0.51
COCCn1c(SCc2ccc(C(=O)OC)o2)nc2ccccc2c1=O	-0.3	x
CC1=NN(c2ccc(C)c(C)c2)C(=O)C1C(c1ccc([N+](=O)[O-])cc1)C1C(=O)N(c2ccc(C)c(C)c2)N=C1C (centres undefined)	x	-0.45
Cc1cc(C)cc(NC(=O)Nc2nnc(N3CC(C)CC(C)C3)s2)c1 (centres undefined)	-0.2	0.5
N#CCc1ccno1	-0.1	x
CCOC(=O)N1CCN(C(=O)CSc2nc3ccccc3s2)CC1	0.15	0.59
COc1cc(CN2CCN(CCOC(=O)N3CCN(c4cccc(Cl)c4)CC3)CC2)cc2c1OCO2	x	0.26
O=S(=O)(Nc1ccc2[nH]ncc2c1)c1ccc(Cl)s1	x	0.01
Cc1[nH]c2ccccc2c1C(c1cccs1)N1CCC(C(N)=O)CC1 (centres undefined)	-0.9	-0.12
C=CCNC(=O)C1CC(c2ccc(F)cc2)=NO1 (centres undefined)	-0.5	0.8
CN1/C(=N\N)c2cccc3cccc1c23	1.2	x
CCOC(=O)C1CCN(C(=O)CNC(=O)Cn2cnc3ccccc3c2=O)CC1	x	0.46
CN(C)C(=O)COc1ncnc2scc(-c3ccccc3)c12	0.35	x
CNC(=O)O/N=C/c1[nH]ncc1Br	0.6	0.51
CCOc1ccccc1NC(=S)N1CCC(NC(=O)c2ccco2)CC1	1	x
CC(C)Cn1cnc2oc(-c3ccccc3)c(-c3ccccc3)c2c1=N	-0.65	6.6
COC(CNC(=O)c1c[nH]c2ccc(S(=O)(=O)N(C)c3ccccc3C)cc2c1=O)OC	0	19
CNC(=O)CN(c1ccc2c(c1)OCO2)S(C)(=O)=O	0.3	0.21
N#CC(C(=O)Cc1cccc2ccccc12)c1nc2ccccc2[nH]1 (centres undefined)	-0.8	3.7
Cn1cnnc1SCc1cc(=O)c(OCC(=O)N2CCCCC2)co1	-1.1	x
O=C(NCCCO)c1nc2ccccc2s1	-1.2	0.51
C/C(=N\NC(=O)c1ccccn1)c1ccc(OC(F)F)cc1OC(F)F	0.6	x
Cc1noc(C)c1COC(=O)c1cccc(S(=O)(=O)N2c3ccccc3CC2C)c1 (centres undefined)	-0.05	x
Cc1ccc(-c2nnc(SC(C)c3ccccc3)n2N)cc1 (centres undefined)	-0.15	x

Grouped by structure, the entries above with a furan ring, fused or not (13)
SMILES	AID504770	CapD inh
NS(=O)(=O)c1ccc(CNC(=O)c2ccco2)cc1	0.7	0.23
Cc1ccc(C(=O)Nc2ccccc2C(=O)NCc2ccco2)cc1	0.65	x
COc1ccc(OC)c(C2CC(c3ccc(OC)c(OC)c3)=NN2C(=O)c2ccc(Br)o2)c1 (centres undefined)	x	0.6
Cc1ccc(C(=O)c2coc3ccc(O)c(CN4CCN(C)CC4)c23)cc1	-1.1	-0.045
CCC(Sc1nncn2c1cc1oc(C)cc12)C(=O)NCc1ccc(C)cc1 (centres undefined)	-0.4	0.65
O=c1c2ccccc2nc2c3ccccc3c(NCc3ccco3)nn12	0.1	x
COc1ccccc1NC(=S)NCc1ccco1	x	0.24
O=C(NCc1ccco1)C(Sc1ccccc1)c1ccccc1 (centres undefined)	0.65	x
CCOC(=O)c1cc2occc2n1Cc1c(F)cccc1Cl	0.5	x
CCOC(=O)C1=C(C)N=c2s/c(=C\c3ccc(-c4cccc(C(=O)O)c4)o3)c(=O)n2C1c1ccc2c(c1)OCO2 (centres undefined)	x	-0.21
COCCn1c(SCc2ccc(C(=O)OC)o2)nc2ccccc2c1=O	-0.3	x
CCOc1ccccc1NC(=S)N1CCC(NC(=O)c2ccco2)CC1	1	x
CC(C)Cn1cnc2oc(-c3ccccc3)c(-c3ccccc3)c2c1=N	-0.65	6.6

Compound activity (PubChem BioAssay)
